Screens (PubChem BioAssay)
PINK1 expr mod – A Quantitative High throughput Screen to Identify Chemical Modulators of PINK1 Expression | PINK1 immunofluorescence, high-content cytometry, 24 h | Potency, µM (series often up to 76.6 µM), for the others: at the top dose activation (PINK1 increase), usual class: activators | 410,000 tested, 0.2% active; active = well fitted activation curve with a large enough effect; inconclusive = small, poorly fitted or top-dose-only effect; inactive = flat fitted curve, though single readings scatter; cell line not stated here;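 note: potency is the fitted concentration of half-maximal effect; % of control where 0% means no effect; nearly all actives have a fitted effect of over 65% in size; a mitochondrial uncoupler was the plate control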
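Compound titrations (5 concentrations, 24 h) on a stable cell line; DMSO and CCCP controls. Endpoint: fixed-cell PINK1 immunofluorescence with mitochondrial, cell and nuclear markers, scanned by microplate cytometer.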
D2 PAM – Beta-Arrestin HTS for Positive Allosteric Modulators of the Human D2 Dopamine Receptor: Potentiators; 360,000 tested, 0.23% active; DiscoveRx D2 beta-arrestin cells, luminescence, 90 min; 100% = 57 uM dopamine signal; D(2) dopamine receptor (Homo sapiens), P14416; potentiation, % (test concentration not listed); active = potentiation of 50% or more; inconclusive = 30% to 50%; inactive = 30% or less;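 note: compound concentration not given in the record; tested on top of an EC20 dose of dopamine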
Target sequence (P14416 whole entry, looked up): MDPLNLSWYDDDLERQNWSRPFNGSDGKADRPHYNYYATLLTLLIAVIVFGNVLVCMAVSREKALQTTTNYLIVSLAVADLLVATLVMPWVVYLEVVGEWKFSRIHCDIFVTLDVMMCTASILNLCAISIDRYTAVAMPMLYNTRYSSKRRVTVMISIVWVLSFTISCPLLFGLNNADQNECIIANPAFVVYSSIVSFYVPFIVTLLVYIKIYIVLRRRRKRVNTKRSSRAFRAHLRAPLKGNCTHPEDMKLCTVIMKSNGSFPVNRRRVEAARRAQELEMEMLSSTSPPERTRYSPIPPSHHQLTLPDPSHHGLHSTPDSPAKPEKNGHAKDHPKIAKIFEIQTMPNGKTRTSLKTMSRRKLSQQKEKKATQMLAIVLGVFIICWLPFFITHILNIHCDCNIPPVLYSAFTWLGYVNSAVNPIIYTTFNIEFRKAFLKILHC
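PathHunter beta-arrestin assay in DiscoveRx D2 cells. Compounds were added with an EC20 of dopamine (50 nM final) for 90 min at 37 deg C. Luminescence was read 1 h after detection reagent, with 57 uM dopamine as the EC100 control.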
Six1-Eya2 blk – qHTS Assay for Inhibitors of the Six1/Eya2 Interaction; Homeobox protein SIX1 (Homo sapiens) + Protein phosphatase EYA2 (Homo sapiens), …; AlphaScreen GST-Six1/His-Eya2 binding, biochemical; active compounds read low; control for the full effect not named in the record; activity change, % (no concentration beside the values); 360,000 tested, 0.56% active; AID 651725, 2012; in the data active = activity change below about -65%; inconclusive = about -30% to -65%; inactive = above about -30%; note: % is set by controls: 0 for no effect and ±100 for the full control effect
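Homogeneous AlphaScreen proximity assay pairing GST-Six1 with His-tagged Eya2 (added as 5X mix: 250 nM and 500 nM) in 50 mM Tris pH 8.0, 300 mM NaCl, 1 mM TCEP. Glutathione donor and nickel acceptor beads; 1 h, 37 °C, dark.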
TRPML1 blocker – qHTS for Inhibitors of the Human Mucolipin Transient Receptor Potential 1 (TRPML1); activity change, negative = inhibition, % (no concentration beside the values); 390,000 tested, 0.02% active; TRPML1-inducible cells, Ca2+ dye fluorescence, FDSS; active compounds read low; inhibition of EC80 agonist-evoked calcium signal; Mucolipin-1 (Homo sapiens), Q9GZU1; in the data active means activity change below about -50%; inconclusive means about -30% to -50%; inactive means above about -30%;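 note: stimulus is agonist 54-4 at its EC80 concentration; % is set by controls: 0 for no effect and ±100 for the full control effect; compound concentration not given in the record; the text of the record puts the active cut at -80%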
Target sequence (Q9GZU1 whole entry, looked up): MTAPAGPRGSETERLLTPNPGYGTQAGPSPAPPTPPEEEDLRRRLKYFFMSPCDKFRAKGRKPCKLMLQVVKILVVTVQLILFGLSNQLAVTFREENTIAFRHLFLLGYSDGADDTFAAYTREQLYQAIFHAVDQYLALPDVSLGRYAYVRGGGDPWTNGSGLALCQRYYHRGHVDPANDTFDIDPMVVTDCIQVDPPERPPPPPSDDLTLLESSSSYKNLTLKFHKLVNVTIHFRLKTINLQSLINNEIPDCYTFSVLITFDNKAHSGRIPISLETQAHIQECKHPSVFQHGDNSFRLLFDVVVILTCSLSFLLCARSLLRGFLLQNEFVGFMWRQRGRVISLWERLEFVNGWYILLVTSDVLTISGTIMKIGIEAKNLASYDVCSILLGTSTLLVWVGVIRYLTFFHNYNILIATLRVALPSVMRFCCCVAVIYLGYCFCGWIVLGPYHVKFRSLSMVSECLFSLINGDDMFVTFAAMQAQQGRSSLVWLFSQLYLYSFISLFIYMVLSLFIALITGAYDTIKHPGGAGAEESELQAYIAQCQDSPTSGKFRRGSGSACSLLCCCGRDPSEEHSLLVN
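TRPML1-DL cells, Tet-induced overnight (~16 h, 37 °C) at 1,500 cells/well, were loaded with Ca8 no-wash dye plus quencher for 45-90 min at room temperature. Compounds were pinned during FDSS kinetic reading; agonist 54-4 at EC80 (4 uM final) then added.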
TRPML1 agonist – qHTS for Agonists of the Human Mucolipin Transient Receptor Potential 1 (TRPML1). AID 624414, 2012. activation, % (no concentration beside the values). 410,000 tested, 0.12% active. TRPML1-expressing cells, Ca2+ dye fluorescence, FDSS; host cell line not named in the record; reference of the full effect not given here; in the data active = activation above about 50%; inconclusive = about 30% to 50%; inactive = below about 30%; note: 0% is about no effect; the text of the record puts the active cut at 80%
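Cells: TRPML1-DL, 1X Tet inducer, ~16 h at 37 degrees C/5% CO2. Dye: ABD Ca8 no-wash + quencher, 45-90 min RT. Read: 10 s baseline, compound add, 110 s agonist phase; 54-4 EC80 (4uM final), 110 s antagonist phase.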
D2 agonist – Beta-Arrestin HTS for Positive Allosteric Modulators of the Human D2 Dopamine Receptor: Agonists. D(2) dopamine receptor (Homo sapiens), P14416. DiscoveRx PathHunter D2 beta-arrestin, luminescence, 90 min; 100% = 57 uM dopamine signal. activation, % (test concentration not listed). 360,000 tested, 0.084% active. AID 624465, 2012; in the data active = activation above about 40%; inconclusive = about 15% to 40%; inactive = below about 15%; note: compound concentration not given in the record; the text of the record calls up to 30% inactive
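Agonist mode: compounds alone added to overnight-plated D2 PathHunter cells for 90 min at 37 C, with 57 uM final dopamine (EC100) defining full response. Beta-arrestin recruitment detected by chemiluminescent reagent, read after 1 h at ambient temperature.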
Starred values were filed as active, the others as inactive; ? = inconclusive; . = no result given; [ ] = another dose, or the depositor's remark.

SMILES	PINK1 expr mod	D2 PAM	Six1-Eya2 blk	TRPML1 blocker	TRPML1 agonist	D2 agonist
CCOc1ncccc1C(=O)Nc1cc(S(=O)(=O)N2CCCCC2)ccc1OC	2.1%	-8	-5	23	1.1	-2.7
CCOC(=O)c1c(NC(=O)c2cc3ccccc3c(=O)o2)sc2c1CCC(C(C)(C)C)C2 (stereo unspecified)	3.3%	.	.	-6	0.8	.
O=C(Cn1cnc2c(cnn2-c2ccc(F)cc2)c1=O)N1CCN(c2ccccc2F)CC1	2.4%[38.3 µM]	-5	4	-7	-0.3	1.5
C=C(C)c1cccc(C(C)(C)NC(=O)N2CCN(C)CC2)c1	-0.3%	-12	2	6	-1.0	-2.5
O=C(CC(=O)Nc1ccc(Cl)cc1Cl)Nc1ccc(Cl)cc1Cl	17%	-2	-2	-3	0.0	0.4
CCC(C)(C)N(C(=O)CCC(=O)Nc1cc(C)on1)C(C(=O)NC(C)(C)C)c1ccc(OC)cc1 (stereo unspecified)	3.5%	-3	1	-11	0.1	1.1
CC(CC(=O)NC1CCCC1)c1ccccc1 (stereo unspecified)	-1.5%	0	9	-1	0.3	-0.3
O=C(c1ccc(=O)[nH]n1)N1CCN(S(=O)(=O)c2ccccc2F)CC1	-0.3%	-4	6	6	0.1	-2.0
Cc1cccc(C)c1NC1=C(Cl)C(=O)OC1OC(C)C (stereo unspecified)	-0.5%	0	1	-4	-0.4	-7.0
Cc1sc(-n2cccc2)c(C(C)NC(=O)Nc2ccccc2Cl)c1C (stereo unspecified)	1.9%	.	.	15	4.3	.
Cc1ccc(OCCCNCCO)c(Br)c1	-0.7%	-29	3	-1	-0.2	0.1
CCCNC(=O)C1(C)CCCN(C(=O)c2cc(C(C)(C)C)nn2C)C1 (stereo unspecified)	0.2%	-14	6	-11	0.0	2.0
COc1ccc(CCNC(=O)CSc2n[nH]c(C)c2[N+](=O)[O-])cc1OC	1.0%	0	0	18	1.0	-4.4
Cn1c(N)c(C(=O)COC(=O)c2ccccc2NCc2ccco2)c(=O)n(C)c1=O	3.2%	0	-1	-5	0.3	-0.5
COc1ccccc1NC(=O)COC(=O)C12CC3CC(CC(Cl)(C3)C1)C2	6.8%	-1	6	59	4.2	4.6
CN1CCN(NC(=O)c2c(-c3ccccc3)sc3ccccc23)CC1	-0.6%	-20	4	-14	0.1	-1.8
CCOC(=O)c1c(S(=O)(=O)N2CCC(C(=O)NCc3cccc(C)c3)CC2)c(C)n(C)c1C	0.3%	.	.	-12	-1.1	.
CC(=O)c1cccc(N2C(=NC(=O)COc3ccccc3)SC3CS(=O)(=O)CC32)c1 (stereo unspecified)	-1.5%	-5	-1	-10	0.0	-0.7
CCCCNc1nc2ccccc2nc1NS(=O)(=O)c1cccs1	0.1%	-20	8	-11	-0.5	1.3
Cc1cc(C)c(C#N)c(SCS(=O)Cc2ccccc2)n1 (stereo unspecified)	-1.5%[38.3 µM]	-7	4	3	-0.2	1.8
CN(C(=O)/C=C/c1ccc(F)cc1)C1CCCCC1	-0.8%	-17	5	5	0.6	-3.2
COc1ccc(CN(Cc2nc3ccccc3c(=O)[nH]2)C(=O)C(C)(C)C)cc1	-0.2%	3	-1	16	0.1	-0.7
CCc1c(C(=O)c2ccc(Cl)cc2)oc2c(C)c3oc(=O)cc(C)c3cc12	?	-8	-2	19	0.9	-4.7
Cc1cccc(NC(=O)CSc2nnc(CSc3nc(C)cc(C)n3)o2)c1	0.1%	-5	-2	24	0.6	-1.8
Nc1cc(=O)[nH]c(SCc2cccc3ccccc23)n1	3.9%	-4	-11	-21	0.4	2.2
CNC(=O)COc1coc(CN2CCN(Cc3ccccc3)CC2)cc1=O	0.3%	0	5	9	0.3	6.7
C=CCn1c(SCC(=O)Nc2ncc(Cc3cc(Cl)ccc3Cl)s2)nnc1-c1ccncc1	-0.6%	-8	-1	10	-1.6	-2.3
S=c1[nH]nc(-c2ccco2)n1/N=C/C(Cl)=C/c1ccccc1	6.2%	-3	-9	-15	1.6	5.9
Cc1ccc(-c2nnn(CC(=O)N(CCO)C(C(=O)NC(C)(C)C)c3ccncc3)n2)cc1 (stereo unspecified)	8.5%[38.3 µM]	-15	5	4	-0.7	-0.8
COC(=O)c1cc(S(=O)(=O)C(C)C)c(S(C)=O)s1 (stereo unspecified)	18%	-2	12	4	0.2	3.4
O=C(CN1CCCC1)NCC1(c2ccccc2)CCOCC1	9.7%[38.3 µM]	-13	0	0	0.5	-1.4
CCSc1nc2n(n1)C(c1ccc(C(=O)O)cc1)C(C(=O)Nc1ccccc1C)=C(C)N2 (stereo unspecified)	2.0%	.	.	-11	0.5	.
CCOc1ccc(OCC)c(Nc2cc(C)nc3nc(C)nn23)c1	6.4%	-5	3	?	1.1	-8.1
C[C@@H]1CN([C@@H](C)CO)C(=O)CCCn2nncc2CO[C@H]1CN(C)S(=O)(=O)c1ccc(Oc2ccccc2)cc1	-0.7%	5	8	-3	0.5	2.1
Cc1onc(-c2ccccc2Cl)c1C(=O)NCCN1Cc2ccccc2C1=O	.	12	-1	-5	-0.6	-4.7
O=C(Nc1cccnc1)c1ccc(C(=O)Nc2cccnc2)cc1	2.1%	-5	-4	-14	-0.2	-2.5

Of the compounds above, three contain a furan ring, fused or not.
SMILES	PINK1 expr mod	D2 PAM	Six1-Eya2 blk	TRPML1 blocker	TRPML1 agonist	D2 agonist
Cn1c(N)c(C(=O)COC(=O)c2ccccc2NCc2ccco2)c(=O)n(C)c1=O	3.2%	0	-1	-5	0.3	-0.5
CCc1c(C(=O)c2ccc(Cl)cc2)oc2c(C)c3oc(=O)cc(C)c3cc12	?	-8	-2	19	0.9	-4.7
S=c1[nH]nc(-c2ccco2)n1/N=C/C(Cl)=C/c1ccccc1	6.2%	-3	-9	-15	1.6	5.9

Further structures.
SMILES	PINK1 expr mod	D2 PAM	Six1-Eya2 blk	TRPML1 blocker	TRPML1 agonist	D2 agonist
CCOC(=O)c1cc(C)sc1NC(=O)c1ccc(Cl)s1	1.9%	-2	18	5	2.9	-0.5
O=C(Cc1cccs1)N(c1ccccc1)C1C=CS(=O)(=O)C1 (stereo unspecified)	-2.3%[38.3 µM]	-6	1	0	1.2	-0.6
COc1ccc(CCNC(=O)CSc2nncn2N)cc1OC	-0.3%[38.3 µM]	-3	-1	-7	0.5	-1.1
Nc1c2c(nn1-c1ccccc1)CCC2	-2.2%	-2	28	-7	0.0	-5.5
COc1ccc(C/C(N)=N/OC(=O)Cc2ccccc2)cc1OC	-1.6%	15	28	-20	1.3	3.7
COc1ccc(/C=N/NC(=O)C2CC2)c(OC)c1OC	0.8%	-9	3	-4	-0.4	0.0
Cc1cc(C)cc(N2CCCn3c2nc2c3c(=O)[nH]c(=O)n2C)c1	5.5%	1	2	3	0.9	5.6
COc1cc(C(=O)Nc2cc(C)ccn2)cc(OC)c1OC	3.0%[38.3 µM]	-10	-2	11	-0.6	-3.1
O=C(c1cccc(-c2ccc(O)cc2)c1)N1CCN(c2ccc(F)cc2)CC1	10%	-3	9	-3	0.5	2.8
COc1ccc(NC(=O)CSc2ccccn2)cc1OC	-0.3%	24	6	-11	-1.0	-2.5
CC(=O)N1CCc2c(sc3c2c(=O)n(-c2ccc(C)cc2)c(=O)n3Cc2ccccc2C)C1	2.9%	.	.	41	0.3	.
Cc1c(CC(=O)O)c(=O)oc2c(C)c(OCc3ccc(F)cc3Cl)ccc12	5.4%	-8	3	22	0.9	0.4
COc1ccc(C(=O)NNC(=O)Nc2ccc(Cl)cc2)cc1	-0.1%	-3	-5	-6	0.3	3.1
O=C(OCCOCCN=C1NS(=O)(=O)c2ccccc21)c1ccc(F)cc1	-2.7%	-5	-3	-4	0.9	-1.1
O=C(Nc1cccc(-n2cnnn2)c1)c1ccncc1	0.9%	-8	5	-6	0.8	1.9
CCOc1ccc(NC(=O)COc2nsnc2N2CCOCC2)cc1	4.7%	-11	3	18	0.3	-3.3
COc1ccc(C(=O)C2CCCN(Cc3cccn3-c3cccnc3)C2)cc1OC (stereo unspecified)	7.7%	-12	-12	-2	-0.9	-3.6
O=C(CSc1nnnn1Cc1ccccc1)Nc1ccccc1	-1.0%	-3	0	-6	1.8	0.8
O=C(CS(=O)(=O)c1c[nH]c2ccccc12)Nc1ccc2c(c1)OCCO2	2.0%[38.3 µM]	?	1	6	1.8	12
Cn1c2ccccc2c2nnc(SC3CCOC3=O)nc21 (stereo unspecified)	7.9%	-4	0	-5	0.0	2.7
CCOCCCNC(=O)c1ccc2c(c1)ncn2C1CCCC1	-0.3%[38.3 µM]	-9	0	7	0.2	-1.0
CCc1cccc(-n2c(=O)c3cccnc3n2CC(=O)Nc2c(C)cc(C)cc2C)c1	0.9%	.	.	-6	-0.8	.
CC(C)CNC(=O)c1c(F)c(F)c(F)c(F)c1F	-0.5%	4	10	-1	-0.6	0.5
CCc1ccccc1NC(=O)c1ccc(NCCc2ccccc2)c([N+](=O)[O-])c1	24%	1	-10	20	2.2	-0.9
Nc1ccc2c(c1)-c1ccc(F)cc1C2=O	-4.3%	-18	-4	14	-0.2	-3.8
O=S(=O)(N/N=C\c1cccn1-c1ccccc1)c1ccc2ccccc2c1	0.0%	7	-26	21	1.3	-5.6
O=C(Nc1ccc(C(=O)N2CCOCC2)cc1)Nc1cccc(Cl)c1	2.8%	-14	-2	-8	0.5	0.0
COC(=O)c1cc(NC(=O)c2ccccc2)c(=O)oc1/C=C/Nc1ccc(Oc2ccccc2)cc1	8.2%	-2	6	8	20	-2.2
Cc1ccc(-n2c(C)nnc2SCC(=O)Nc2ccccc2)cc1	-0.8%	-5	0	5	0.0	-0.1
O=C(Nc1nnc([C@H]2C[C@H](O)[C@@H](CO)O2)s1)NC(c1ccccc1)c1ccccc1	1.8%	1	0	.	-0.8	-3.7
CC(=O)c1ccc(Oc2nc(C)nc3c2oc2ccccc23)cc1	4.3%	.	.	-14	0.0	.
COCCNC(=O)C1CCCN(S(=O)(=O)c2ccc3c(c2)CC(C)N3C(=O)C2CC2)C1 (stereo unspecified)	0.7%	-2	0	1	-1.4	1.1
COc1ccccc1-c1cc2ccccc2[nH]1	2.1%	-9	-3	0	2.0	-0.4
CCC(=O)Nc1cc2nn(-c3ccc(OC)cc3)nc2cc1C	15%[38.3 µM]	5	0	0	0.5	0.0
